Source: PubChem (several laboratories)
BJeLR lethal = BJeLR cell viability loss; BJeLR (HRASV12) viability, CellTiter-Glo ATP luminescence, 48 h; reference of the scale not given here; inhibition, % (no concentration beside the values); actives 0.17% (n = 300,000); AID 1554;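 active = replicate mean above 50%; inconclusive = above 50% but judged a plate artefact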;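 also: 50 nL library stock added to about 25 µL; numbers are from one replicate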
PrP UTR inh = inhibition of PrP 5' UTR reporter expression | cell-based PrP 5' UTR mRNA reporter, plate reader | inhibition, % (concentration not given with the values) | actives 0.35% (n = 340,000);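 active = every replicate at 50% or more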;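 also: 0 = median of the neutral control wells; tested in H4 reporter cells; numbers are from one replicate; inactives centre near -14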
Autofluor counter = compound fluorescence in toxin protease inhibitor counterscreen; compound autofluorescence counterscreen, microsphere flow cytometry; active compounds read high; fluorescence intensity (test concentration not listed); actives 3.1% (n = 360,000); AID 624483;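 active = at least 3 SD above the mean of all compounds, about 16000 in these data; inconclusive = too few beads counted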;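 also: 100 nL of 1 mM stock went into each well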
Mtb hypoxia rep = Mtb hypoxia fluorescent reporter inhibition. fluorescence inhibition, % (test concentration not listed). AID 1159583. M. tuberculosis hypoxia-regulated fluorescent reporter, fluorescence. actives 0.1% (n = 300,000);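 active = 35 to 45% if threefold the growth effect, above 45% if 1.5-fold the growth effect; inactive = the rest, general growth blockers included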;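 also: wells of about 50 µL received 100 nL stock; 0% = vehicle wells and 100% = reference inhibitor wells; whole bacteria with a GFP reporter of the hypoxia response; strong numbers were not always called active; many hits fall short of the cut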
Sa RN4220 lethal = S. aureus RN4220 growth inhibition | OD600, 16 h | inhibition, % (test concentration not listed) | actives 0.33% (n = 330,000);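 active = z-score of -3 or lower and OD600 up to 0.18 on both plates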;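 also: plate controls were untreated cells for no effect and reference antibiotic for full effect; stock transfer was 100 nL into about 80 µL; one replicate is shown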
Sa ugtP lethal = kills S. aureus RN4220 lacking UgtP; S. aureus RN4220 ugtP deletion, OD600 growth, 16 h; some inactives read as strong as hits; growth inhibition, % (test concentration not listed); actives 0.54% (n = 330,000); AID 1259309;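 active = z-score under -3 and OD600 up to 0.15 on both plates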;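 also: plate controls were untreated wells for no effect and antibiotic for full effect; wells of about 80 µL received 100 nL stock; the first replicate is given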
Mtb hypoxia rep growth = also measured in Mtb hypoxia rep; calls as there; growth inhibition, %; measured here: M. tuberculosis growth (absorbance);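 0% = vehicle and 100% = reference antibiotic; read after six days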
Active calls of the source: *; u = inconclusive; x = no result given; & = joins results of further samples.

SMILES	BJeLR lethal	PrP UTR inh	Autofluor counter	Mtb hypoxia rep	Mtb hypoxia rep growth	Sa RN4220 lethal	Sa ugtP lethal
Cc1cccc(N(Cc2cc3ccc(C)cc3[nH]c2=O)S(=O)(=O)c2ccccc2)c1	-3	-8	5787	-12	0	-1.6	-3
CC(=O)Nc1ccc(Cl)c(-c2nc3ncccc3o2)c1	-1	-13	3751	9	-5	-0.6	9
COc1ccc(/C=C/C(=O)c2ccc(O)cc2)cc1COc1ccc(F)cc1	0	-5	11003	-1	15	58	87*
NC(=S)Nc1cccc(Cl)c1	-3	-6	3463	x	x	x	x
CCCNC(=O)c1ccc(N2CCC3(CC2)CC(c2cccc(Br)c2)=NO3)c(NC(=O)c2cccc(C)c2)c1	8	1	3549	8	8	5.5	-22
O=C(Nc1ccc2c(c1)OCO2)c1cc(Cl)ccn1	x	-91	4019	9	13	4.3	1
CN(Cc1ccccc1)C(=O)c1ccccc1NC(=O)C1=CSCCO1	-9	-14	7113	3	-3	1.0	-3
CCOC(=O)c1c(C)[nH]c(C(=O)NN=Cc2ccccc2Cl)c1C	x	x	x	6	-2	1.7	-8
CCC(C)[C@H]1COCCS(=O)(=O)N1Cc1ccccc1 (stereo not given in full)	8	-5	4041	5	5	-5.6	-6
COc1ccc(Cc2nc3ccc(C(=O)N(C)CCc4cnn(C)c4)cc3o2)cc1OC	14	-16	6157	-1	-4	2.4	6
COc1cc(NC(=O)CCCl)cc(-n2cnnn2)c1	2	-1	4425	10	6	4.0	-1
Cc1c(O)ccc(/C(Cc2ccc3ccccc3n2)=N\O)c1O	7	-47	9074	x	x	x	x
COc1cccc(C(C(=O)NC2CCCCC2)N(C(=O)CNC(=O)c2ccco2)c2cccnc2)c1 (stereo not given)	-14	-21	5447	-9	7	-3.1	4
CN(CCCNC(=O)C1CCC(=O)N1Cc1ccccc1Cl)c1ccccc1 (stereo not given)	-6	-7	16389*	1	1	0.0	-1
C/C(=N\NC(=O)c1ccc2c(c1)OCO2)c1ccc(NS(C)(=O)=O)cc1	9	-15	3717	x	x	x	x
COc1ccccc1NC(=O)COC(=O)/C=C/c1ccccc1[N+](=O)[O-]	0	-35	10449	-6	-5	4.3	-9
Cc1ccc(S(=O)(=O)N2CCN(C(=O)c3cccs3)CC2)c(C)c1	-1	-25	4610	12	0	5.2	7
CCCCOC(=O)CSC(=S)N(C)Cc1cccs1	-19	-22	2442	8	7	11	19
COC(=O)c1cccc(N=Cc2c(O)n(Cc3ccc(F)cc3)c(=O)[nH]c2=O)c1	-2	x	5655	11	4	2.0	11
CCn1nnc(NC(=O)c2ccc(-c3ccc(Cl)cc3)o2)n1	-8	-22	3127	7	3	6.3	4
COc1ccc(S(=O)(=O)Nc2ccc3c(c2)C(=O)N(C(C)CO)CC(C)C(CN(C)C(=O)NC2CCCCC2)O3)cc1 (stereo not given)	x	x	x	11	8	0.2	-3
CC(C)Oc1ccc(/C=N/NC(=O)C(CSCc2ccccc2)NC(=O)c2ccc([N+](=O)[O-])cc2)cc1 (stereo not given)	-3	-16	3887	x	x	x	x
CCOc1cc(C=NNC(=O)CN2CCCCC2)ccc1OCc1cccc(Cl)c1	x	x	x	10	7	-0.1	3
O=C(CC1Nc2ccccc2NC1=O)Nc1ccc2c(c1)OCO2 (stereo not given)	-4	-19	2702	-3	7	1.5	0
Cc1cc(NC(=O)CN2C(=O)NC(C)(c3ccc(Cl)cc3)C2=O)no1 (stereo not given)	-4	-20	4454	10	7	-3.1	4
COc1ccc2cc(C(N)=O)c(=NNC(=O)c3ccccc3)oc2c1	x	x	x	-3	-1	10	3
O=C(CSc1nc(Cc2ccccc2)nc2ccccc12)Nc1ccc2c(c1)OCCO2	6	-21	5129	-8	-2	2.1	-4
NC(=O)c1c(NC(=O)Cc2ccccc2)sc2c1CCN(Cc1ccccc1)C2	-8	-14	5547	9	9	-16	-8
COc1ccc(NC(=O)CON=C2CCCc3nonc32)c(OC)c1	x	x	x	14	12	1.7	2
Cn1cccc1Cc1nnc(SCC(=O)Nc2nccs2)n1C	11	-3	4465	4	-2	4.4	6

2 entries from above in a different format:
Order of results: BJeLR lethal | PrP UTR inh | Autofluor counter | Mtb hypoxia rep | Mtb hypoxia rep growth | Sa RN4220 lethal | Sa ugtP lethal
> NC(=S)Nc1cccc(Cl)c1
  -3 | -6 | 3463 | x | x | x | x
> COc1ccccc1NC(=O)COC(=O)/C=C/c1ccccc1[N+](=O)[O-]
  0 | -35 | 10449 | -6 | -5 | 4.3 | -9

The listing continues.
SMILES	BJeLR lethal	PrP UTR inh	Autofluor counter	Mtb hypoxia rep	Mtb hypoxia rep growth	Sa RN4220 lethal	Sa ugtP lethal
C#CCNC(=O)C1=CC(c2coc3ccccc3c2=O)C(CCCO)C(OCC)O1 (stereo not given)	x	x	x	-4&-3	-11&-8	-0.5&2.4	0&-2
CN=C(Nc1cc(C)nn1CCC#N)c1ccc(F)cc1	0	-8	4307	8	1	0.2	4
CCN(C(=O)COC(=O)c1ccc2[nH]c(C)c(C)c2c1)c1c(N)n(Cc2ccccc2)c(=O)[nH]c1=O	x	4	u	-1	-1	1.0	-1
CC1(c2cccc(Br)c2)NC(=O)N(CC(=O)c2ccc3c(c2)OCCO3)C1=O (stereo not given)	x	-22	4756	0	2	2.2	0
CN(C)C(=C(C#N)C#N)N1CCN(c2ccc(Cl)cc2)CC1	3	-20	4303	0	0	1.7	3
O=C(NN=Cc1ccc(N2CCOCC2)cc1)C1CC1	x	x	x	4	6	4.1	2
CN(C)C(CNS(=O)(=O)c1cc([N+](=O)[O-])ccc1Cl)c1ccco1 (stereo not given)	x	-20	2940	7	1	4.2	5
CC(=O)N1CCN(c2ccc(NC(=O)c3ccccc3C)cc2)CC1	-14	-8	3599	11	6	0.4	-1
Fc1ccccc1-n1cn[nH]c1=S	-10	-41	4310	-1	8	3.7	6
CCCn1c(=O)c(C(=O)NCc2ccccc2)c(O)c2ccccc21	4	-24	3270	x	x	x	x
CC(=O)c1ccc(N2CCN(S(=O)(=O)c3cc4c(cc3C)NC(=O)CO4)CC2)cc1	0	-10	4668	8	-5	2.4	5
CCc1ccc(NC(=O)c2c(Cl)nc(C)c(Cl)c2C)cc1	14	5	9914	x	x	x	x
CCOC(=O)c1sc(NC(=O)c2cccnc2)nc1C	-1	-43	6001	2	11	0.6	5
N#Cc1c(SCc2cccc(Cl)c2)sc(C(=O)c2ccccc2)c1N	-1	-20	2354	x	x	-2.6	-19
COC(=O)c1ccccc1NC(=O)COC(=O)/C=C/c1cccs1	x	-8	3725	15	7	4.4	-8
O=C(c1ccc2c(c1)C(=O)N(Cc1ccncc1)C2=O)N1CCN(S(=O)(=O)c2ccc(OC(F)(F)F)cc2)CC1	x	-13	2871	6	-2	1.4	1
CCOc1ccc(C(F)(F)F)cc1NC(C)=O	1	-32	4279	x	x	0.8	-5
CC(C)CNS(=O)(=O)c1ccc(OCC(=O)NCc2ccco2)cc1	-6	-29	1992	4	-4	-1.2	0
Cc1ccc2c(c1)C(=O)N1C3c4cc(C)ccc4OCC3C(c3ccccc3)[C@]1(C)C(=O)N2 (stereo not given in full)	x	x	x	6	10	-4.9	-2
CC(Oc1ccccc1)C(=O)NN1Cc2ccccc2C1=N (stereo not given)	-3	-21	2047	-15	-7	1.6	1
CCOC(=O)/C(C#N)=C1/C=CNC(=O)N1	4	-13	7846	6	-2	4.2	9
COc1cc(C)ccc1OCCCOc1ccccc1Br	-1	-43	2393	x	x	x	x
CC(OC(=O)/C(C#N)=C/c1ccco1)C(=O)N(C)c1ccccc1 (stereo not given)	x	-28	3510	12	10	7.2	4
CCN(CC)S(=O)(=O)c1ccc(C(=O)NCc2cccs2)cc1	-4	-6	21571*	-4	1	-1.3	-6
Nc1ncnc2c1ncn2[C@@H]1O[C@H](CNCc2ccc(OCC(=O)Nc3ccccn3)cc2)[C@@H](O)[C@H]1O	x	87*	3749	-18	-20	2.1	2
Fc1cccc(C=NNc2nc3ccccc3[nH]2)c1	x	x	x	-3	-7	-4.0	-14
O=C(Nc1ccc(F)cc1)C1CCN(C(=O)c2ccc([N+](=O)[O-])cc2)CC1	-1	-3	2508	10	7	4.0	-6
CC1Cc2ccccc2N1C(=O)CSc1nc2cc3c(cc2cc1C#N)OCO3 (stereo not given)	x	-25	3295	19	14	4.4	10
O=C(c1cnn2c(C(F)F)cc(-c3ccccc3)nc12)N1CCc2ccccc21	-2	-4	2481	-12	7	-2.8	-5
COc1ccc(NS(=O)(=O)c2ccc3c(c2)NC(=O)C(C)S3)cc1 (stereo not given)	9	-1	6111	7	-3	39	19
CCC(C)(NC(=O)c1ccc(=O)[nH]c1)C(=O)NC1CCCC1 (stereo not given)	-2	-11	5366	7	-5	1.4	11
CC1CC(=O)N(c2ccc(NCc3ccccc3Cl)c([N+](=O)[O-])c2)C1=O (stereo not given)	-12	-11	1987	4	6	2.3	2
COc1cccc(-c2c(C#N)c(N)nc3c2c(=O)nc2sccn23)c1	-18	x	x	7	-6	0.6	1
COc1cccc(C(=O)N2CCN(Cc3ccccn3)CC2)c1OC	-5	-104	3093	x	x	-0.7	3
COc1ccc(NC(=O)Nc2cccc3c2O[C@H](CN(C)S(=O)(=O)c2cn(C)cn2)[C@@H](C)CN([C@H](C)CO)C3=O)cc1	x	-18	4249	10	6	-13	-5
COc1ccc(C(=O)NCc2nnc(SCCOc3ccccc3)n2C)cc1	-10	3	5097	-3	7	7.4	-3
Cc1cccc(C)c1NC1=C(Cl)C(=O)OC1OC(C)C (stereo not given)	18	-19	2556	7	2	5.3	-5
Cc1ccc(C(=O)OCC(=O)Nc2ccc(N3CCOCC3)cc2)cc1	x	-10	4859	-1	-6	0.2	6
O=C(Nc1ccc(NC(=O)c2cccs2)cc1)c1ccccc1	-1	-56	5694	7	15	-3.0	-7
CC1CCCC(C)N1CCOc1cc(N)ccc1C#N (stereo not given)	x	-16	4047	4	6	2.1	1
COc1ccc(CCNC(=O)CSC2=Nc3ccccc3C3=NC(C(C)C)C(=O)N23)cc1OC (stereo not given)	-7	-16	3151	5	5	1.3	2
CCOc1cc(-c2noc(CCC(=O)NC3CCCCC3)n2)ccc1OC	1	-13	3979	-13	3	-2.3	14
CC(=O)Nc1ccc(S(=O)(=O)NCCC(=O)OCCN2C(=O)c3ccccc3C2=O)cc1	4	-14	11004	1	1	2.2	1
O=C(Nc1cccnc1)c1ccc(Br)s1	3	-28	11887	4	5	2.7	15

Complete entries as entered above:
COc1ccc(NC(=O)Nc2cccc3c2O[C@H](CN(C)S(=O)(=O)c2cn(C)cn2)[C@@H](C)CN([C@H](C)CO)C3=O)cc1 in the list: BJeLR lethal: x; PrP UTR inh: -18; Autofluor counter: 4249; Mtb hypoxia rep: 10; Mtb hypoxia rep growth: 6; Sa RN4220 lethal: -13; Sa ugtP lethal: -5
Cc1cccc(C)c1NC1=C(Cl)C(=O)OC1OC(C)C (stereo not given) in the list: BJeLR lethal: 18; PrP UTR inh: -19; Autofluor counter: 2556; Mtb hypoxia rep: 7; Mtb hypoxia rep growth: 2; Sa RN4220 lethal: 5.3; Sa ugtP lethal: -5
CCC(C)(NC(=O)c1ccc(=O)[nH]c1)C(=O)NC1CCCC1 (stereo not given) in the list: BJeLR lethal: -2; PrP UTR inh: -11; Autofluor counter: 5366; Mtb hypoxia rep: 7; Mtb hypoxia rep growth: -5; Sa RN4220 lethal: 1.4; Sa ugtP lethal: 11

Not a hit list, and some 4.1% of all compounds hit somewhere here.
